ALR H2O2 inh: inhibitors of human ALR sulfhydryl oxidase, primary screen, biochemical, H2O2 detection, HRP-luminol luminescence, single point | 290,000 compounds, 3.8% hits | AID 485317, 2010 | purified ALR, DTT oxidation | inhibition, % (test concentration not listed) | FAD-linked sulfhydryl oxidase ALR (Homo sapiens), P55789;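 active = mean and each replicate at 75% or more; inconclusive = only one of the two met; inactive = neither met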;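 also: stock transfer was 7.5 nL into about 7.5 µL; 0% = neutral wells and 100% = wells with inactivated enzyme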
MLL AF4-AF9 inh: inhibitors of AF4 peptide binding to AF9, primary screen, biochemical, AlphaScreen, biotin-AF4 peptide, FLAG-AF9, single point | Protein AF-9 (Homo sapiens), P42568 | inhibition, % at 10 µM | 350,000 compounds, 0.47% hits;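 active = every replicate reaching a set inhibition limit, whatever the replicate mean, cut at about 25% in these data; inconclusive = mean inhibition reaches that limit but some replicates miss it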;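 also: 0% = plate neutral control median and 100% = total signal loss; the record names both 10 and 1 µM as test concentration; the first replicate is given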
Target sequence (P42568 whole entry, looked up): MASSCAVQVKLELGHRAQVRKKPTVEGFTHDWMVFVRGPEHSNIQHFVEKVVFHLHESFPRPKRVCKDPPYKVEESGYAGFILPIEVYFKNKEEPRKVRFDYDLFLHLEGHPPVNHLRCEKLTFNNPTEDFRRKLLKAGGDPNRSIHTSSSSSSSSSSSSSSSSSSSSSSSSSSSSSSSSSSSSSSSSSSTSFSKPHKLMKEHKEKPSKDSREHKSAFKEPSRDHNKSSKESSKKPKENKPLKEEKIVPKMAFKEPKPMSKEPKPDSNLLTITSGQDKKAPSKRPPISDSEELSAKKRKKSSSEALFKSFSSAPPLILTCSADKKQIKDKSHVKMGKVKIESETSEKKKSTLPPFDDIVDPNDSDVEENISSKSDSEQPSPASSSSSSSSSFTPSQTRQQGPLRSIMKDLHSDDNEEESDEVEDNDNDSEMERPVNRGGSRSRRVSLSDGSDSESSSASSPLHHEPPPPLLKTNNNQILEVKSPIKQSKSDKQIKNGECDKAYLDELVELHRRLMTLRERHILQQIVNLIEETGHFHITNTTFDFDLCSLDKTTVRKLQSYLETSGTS
HNF4A DNA FP: change in binding of human HNF4A to DNA, primary screen, biochemical, fluorescence polarization, FITC-DNA; Hepatocyte nuclear factor 4-alpha (Homo sapiens), P41235; 1 h; activity change, % at 10 µM; 360,000 compounds, 0.3% hits; AID 1224865, 2016; in the data active = activity change above about 30%, passing the limit was not always enough;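 also: controls were the assay level and a saturating level of protein; the project sought stronger binding though the title names inhibitors; some compounds called inactive have numbers as strong as hits; positive values seem to mean higher polarization but the record does not say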
Target sequence (P41235 whole entry, looked up): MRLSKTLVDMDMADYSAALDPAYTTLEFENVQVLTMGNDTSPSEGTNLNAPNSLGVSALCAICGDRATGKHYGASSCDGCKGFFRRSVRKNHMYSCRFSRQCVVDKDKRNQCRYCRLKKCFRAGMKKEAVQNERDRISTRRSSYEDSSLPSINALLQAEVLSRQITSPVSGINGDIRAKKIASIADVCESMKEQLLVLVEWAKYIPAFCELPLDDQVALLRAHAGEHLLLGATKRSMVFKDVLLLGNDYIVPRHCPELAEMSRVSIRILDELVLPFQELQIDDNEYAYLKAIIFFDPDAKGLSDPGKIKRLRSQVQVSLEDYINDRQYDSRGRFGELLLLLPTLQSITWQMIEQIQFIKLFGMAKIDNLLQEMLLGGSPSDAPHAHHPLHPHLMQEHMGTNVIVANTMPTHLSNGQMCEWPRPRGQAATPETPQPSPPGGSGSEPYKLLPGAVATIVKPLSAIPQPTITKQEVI
Vif A3G: inhibitors of Vif binding to APOBEC3G peptide, primary screen, biochemical, TR-FRET, GST-Vif 1-94, biotin-A3G peptide, dose response retest (AID 1117319) | TR-FRET GST-Vif / biotin-A3G peptide binding; higher % means a stronger effect; test concentration not given here; strong numbers were not always called active | inhibition, %; hits with a dose series show IC50 in µM | 260,000 compounds, 0.57% hits;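 active = above the screen mean plus three standard deviations and confirmed in dose response; inconclusive = results disagree or hit not tested in dose response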;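 also: Vif residues 1-94 fused to GST binding biotinylated APOBEC3G peptide 110-148; 0% = full assay without inhibitor and 100% = GST in place of GST-Vif; retest series ran down from 100 µM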
Ecoli growth: E. coli growth inhibition, primary screen, OD600; Escherichia coli growth, 23 h; hits give low values; OD600 absorbance (concentration not given with the values); 330,000 compounds, 0.21% hits; AID 1053175, 2014;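 active = OD600 absorbance below the run mean of sample wells minus 3.6 SD, in any replicate, cut at about 0.56 in these data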;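 also: stock transfer was 300 nL into about 60 µL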
Ecoli rRNA inh: reduced GFP signal of wild-type E. coli, primary screen, bacterial rRNA inhibitor project, GFP/RFP fluorescence, OD600, single point. E. coli WT GFP vs humanized-ribosome RFP mutants, 24 h; hits give low values; DMSO median 0, no signal -100. GFP signal change (wild-type ribosome), % (test concentration not listed). 350,000 compounds, 1.6% hits;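 active = significant combined selectivity score with lowered wild-type GFP, culture density cut under 30%, mutant RFP and density less affected; inactive = any of these conditions unmet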; also: one replicate is shown; some compounds called inactive have numbers as strong as hits
FGF22 binding: binders of human FGF22 protein, primary screen, FGF22 synaptogenesis inhibitor project, biophysical, thermal shift, single point; 340,000 compounds, 1.5% hits; AID 651658, 2012; calls only at 9.99 µM; Fibroblast growth factor 22 (Homo sapiens), Q9HCT0; recombinant FGF22 thermal shift, SYPRO orange fluorescence; percent of sucrose octasulfate shift, DMSO zero;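 active = melting point raised past a set limit in the mean and every replicate; inconclusive = no clear call; three in four hits are not shown here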
Ecoli rRNA inh OD600: further read-out of Ecoli rRNA inh, marked with its call; OD600 change, %; measured here: OD600 growth;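 optical density of the mix in the first replicate; 0 = DMSO median and -100 = no signal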
Ecoli rRNA inh RFP: second read-out of Ecoli rRNA inh, no call of its own (marks repeat the call); RFP signal change, %; measured here: RFP humanized mutant strains;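 first replicate; 0 = DMSO median and -100 = no signal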
The depositor's hits bear a star; i = inactive; ? = inconclusive; nt = no result given; + = active, no number.

SMILES	ALR H2O2 inh	MLL AF4-AF9 inh	HNF4A DNA FP	Vif A3G	Ecoli growth	Ecoli rRNA inh	Ecoli rRNA inh OD600	Ecoli rRNA inh RFP	FGF22 binding
CCOCCCn1c(SCC(=O)NCc2ccc3c(c2)OCO3)nc2ccccc2c1=O	nt	3.5	0.7	7%	0.63	4	3	-0.2	i
Cc1cccc(C(=O)NC2CCN(C(=O)NCc3ccccc3)CC2)c1	0	-1.8	4.0	nt	0.7	10	10	0.4	i
CCN1CC(CN(C)Cc2nc(COc3ccccc3)no2)CC1=O (centres undefined)	-4	-3.4	-2.1	1%	nt	14	3	2.4	i
CS(=O)(=O)N1CCN(c2ccccc2NC(=O)c2ccc(-c3ccc(Cl)cc3Cl)o2)CC1	-3	nt	1.0	-2%	0.74	nt	nt	nt	nt
O=C(N/C(=C/c1ccc(Cl)cc1)C(=O)N1CCCC1)c1ccccc1	0	5.2	2.2	25%	0.65	9	-6	-2.9	i
C[C@H](CO)N1C[C@H](C)[C@@H](CN(C)Cc2cccnc2)Oc2cc(C3=CCCC3)ccc2S1(=O)=O	nt	-2.0	nt	nt	nt	0	-10	2.7	i
CC(=O)c1sc(NC(=O)c2cc(S(=O)(=O)N3CCOCC3)ccc2F)nc1C	3	0.8	6.9	nt	0.69	-5	-3	1.3	i
CCCSc1ccc([C@@H]2[C@@H]3C(=O)N(CC)C(=O)[C@@H]3[C@]3(C(=O)OC)CCCCN23)cc1OC	-5	3.7	-3.0	nt	nt	3	3	-2.8	i
CC12CCC(=O)C=C1CCC1C2C(O)CC2(C)C1CCC2(O)C(=O)COC(=O)COCC(=O)O (centres undefined)	nt	-2.3	2.8	1%	0.7	5	8	2.7	i
CCOC(=O)c1c(CN2CCN(CCO)CC2)n(-c2ccccc2)c2cc(Br)c(O)cc12	68	6.5	1.8	-13%	0.67	-5	-18	27	i
Cc1ccc(S(=O)(=O)c2c[nH]c3ccc(C)cc3c2=O)cc1	-22	-0.9	1.5	-12%	0.7	3	1	-2.1	i
CN(C)c1ccc2c(c1)[C@@H]1C[C@H](CC(=O)NCc3ccc(Cl)cc3)O[C@H](CO)[C@@H]1O2	nt	7.3	nt	nt	nt	-6	-14	0.5	i
Cc1[nH]c2ccccc2c1/C=N/NC(=S)NC(C)C	99*	13	15	nt	nt	-47*	-3.4*	-2.7*	i
CCOC(=O)[C@@H]1[C@H]2COc3ccccc3[C@@H]2N2C(=O)N(c3ccc(C)cc3)C(=O)[C@@]12C	5	nt	-3.9	nt	nt	5	10	0.8	i
CCCCn1c(=S)[nH]c2ncccc2c1=O	nt	nt	0.1	-8%	0.73	nt	nt	nt	nt
COC(=O)Nc1ccc(=O)n(Cc2c(Cl)cccc2Cl)c1	-6	nt	-1.5	5%	0.65	nt	nt	nt	nt
CC(=O)C1C(=O)CC(C)(O)C(C(C)=O)C1c1ccccc1 (centres undefined)	11	-1.0	-1.2	3%	0.68	12	20	-0.3	i
COc1ccc(CNC(=O)CSc2nc3cccnc3s2)cc1	-21	0.1	3.5	-2%	0.66	6	1	-1.1	i
CO[C@@H]1CN(C)C(=O)c2ccc(NC(=O)c3ccccc3)cc2OC[C@@H](C)N(C(=O)CN(C)C)C[C@@H]1C	nt	1.9	nt	nt	nt	0	2	1.1	i
CCC(=O)N(C)C[C@H]1Oc2ncc(-c3ccc(C#N)cc3)cc2C(=O)N([C@H](C)CO)C[C@H]1C	nt	-0.5	nt	nt	nt	0	5	-1.4	i
Cc1cc(Br)cn2c(Cc3ccccc3C(F)(F)F)c(-c3ccc(F)cc3)nc12	nt	0.4	nt	nt	nt	-4	-10	17	i
COc1cc(C2c3[nH]c4ccccc4c3CCN2Cc2cn(C)nc2C)ccc1F (centres undefined)	-15	14	6.6	-6%	0.69	-16	-21	-3.1	i
Cc1cc(C(=O)Nc2ccc3ccccc3c2)oc1C	-2	-2.4	-0.3	nt	0.61	-18	-38	-4.6	i
COc1ccc(/C=N/NC(=O)c2ccn[nH]2)cc1COc1ccc(Cl)cc1Cl	4	nt	1.9	5%	nt	nt	nt	nt	nt
Cc1ccc(C)c(N(CC(=O)NC2CCCC2)C(=O)c2csnn2)c1	-17	-0.9	-1.4	nt	0.67	5	6	1.0	i
O=C(NCC(=O)N1CCN(c2ccccc2O)CC1)c1ccco1	90*	-0.9	-3.7	5%	0.68	3	2	1.1	i
Cc1ccc(C2=NN=C(NC(=O)C(F)(F)F)SC2)cc1	nt	-3.1	0.6	4%	0.7	-7	-16	-6.9	i
COc1cc(OC)c(C(=O)OCC(=O)NCC2CCCCC2)cc1OC	nt	-0.3	-2.6	-3%	0.69	-7	-4	1.5	+
CC(O)Cn1c(=O)c2c(nc(Br)n2Cc2ccccc2)n(C)c1=O (centres undefined)	3	nt	2.7	-11%	0.67	nt	nt	nt	nt
CCC(=O)NC(c1ccco1)c1cc(Cl)c2ccccc2c1O (centres undefined)	58	1.1	-3.6	nt	0.63	6	-65	-19	i
COc1ccc(NC(=O)/C=C/c2c(Cl)nc3ccccn23)cc1	-21	4.9	4.2	8%	nt	2	-12	0.5	i
CCOC(=O)C1(Cc2ccc(Cl)cc2)CCN(C(=O)C2=NNC(=O)CC2)CC1	-13	-0.1	-6.2	9%	0.67	-14	-18	-1.6	i
Cc1cc(C)nc(NC2=NCC(=O)N2c2ccccc2)n1	-3	nt	1.3	14%	0.69	nt	nt	nt	nt
C[C@@H]1CN([C@@H](C)CO)C(=O)c2cc(NC(=O)Nc3cccc4ccccc34)ccc2O[C@@H](C)CCCCO[C@H]1CN(C)Cc1ccc(Cl)c(Cl)c1	nt	-4.5	nt	nt	nt	3	5	-0.4	i
COc1ccc(CC2C(=O)OC(C)(C)OC2=O)c(Cl)c1OC	nt	-3.2	1.5	-3%	0.69	14	7	2.7	i
OCCNc1nc(Nc2ccc(Br)cc2)nc2ccccc12	-15	13	nt	-6%	0.4*	-60	-80	-22	i
O=C(N/N=C/c1ccc([N+](=O)[O-])cc1)c1cc(C2CC2)nc2ccccc12	3	nt	1.8	4%	nt	27	23	1.2	i
COc1cc(/C=C/C(=O)Nc2nnc(C(C)(C)C)s2)cc(OC)c1OC	-1	nt	-2.8	nt	0.73	nt	nt	nt	nt
CN1C(=O)[C@H]2[C@@H](C3CC3)N3C(=O)CN(Cc4ccccn4)C(=O)[C@@]3(Cc3ccccc3)[C@H]2C1=O	-6	-8.1	2.4	nt	nt	2	3	-12	i
C[C@@H]1CN([C@H](C)CO)C(=O)c2cccc(NS(=O)(=O)c3ccc(F)cc3)c2O[C@@H]1CN(C)Cc1ccc(Cl)c(Cl)c1	nt	3.7	nt	nt	nt	-6	0	1.9	i
COc1ccc(-n2c(COc3ccc(C)cc3)nnc2SCc2ccc(C#N)cc2)cc1	-31	nt	3.4	-1%	0.77	nt	nt	nt	nt
COc1ccc(C(=O)OCCc2sc[n+](CC(=O)c3ccccc3)c2C)cc1	nt	11	-0.5	nt	0.67	-36	-61	17	i
O=C(C[C@H]1C[C@H]2c3cc(NC(=O)C4CCOCC4)ccc3O[C@H]2[C@H](CO)O1)NCc1ccccc1F	nt	-3.4	nt	nt	nt	3	-1	-1.2	i
Cc1cc(C(F)F)n2nc(C(=O)Nc3cccc(S(=O)(=O)N4CCOCC4)c3)nc2n1	-5	0.0	1.4	nt	0.66	-1	2	-0.7	i
C[C@H]1CN([C@@H](C)CO)C(=O)c2cccc(NS(=O)(=O)c3cccs3)c2O[C@H]1CN(C)C(=O)NC1CCCCC1	nt	-1.8	nt	nt	nt	-1	4	-2.8	i
N#CC1C(C#N)N2CCCN2C1c1ccc(Cl)cc1 (centres undefined)	7	nt	2.5	-4%	0.74	nt	nt	nt	nt
O=C(c1ccccc1)N1CCN(C(=O)C2CC2)CC1	-1	1.2	0.8	nt	0.63	1	2	-1.8	i
O=C(COC(=O)COc1ccccc1[N+](=O)[O-])Nc1ccc2c(c1)OCO2	-8	1.4	1.8	0%	0.69	8	16	-0.7	i
CCN(CC)S(=O)(=O)c1cccc(-c2nnc(SCC(=O)c3cc(C)n(C4CC4)c3C)o2)c1	-8	nt	-0.8	nt	0.74	nt	nt	nt	nt
O=C(Cn1nnc(-c2ccccc2NC(=O)c2ccccc2F)n1)NCc1ccco1	-5	nt	1.5	-2%	0.79	nt	nt	nt	nt
COc1cc(-c2cc(=O)c3c(O)c(OC)c(OC)c(O)c3o2)ccc1O	99*	0.8	-4.8	?	0.75	nt	nt	nt	i
Cc1ccc(S(=O)(=O)Nc2cccc3c2O[C@@H](CN(C)S(=O)(=O)c2ccc(Cl)cc2)[C@H](C)CN([C@H](C)CO)C3=O)cc1	nt	-4.2	nt	nt	nt	0	2	1.9	i
C[C@H]1CN([C@@H](C)CO)C(=O)c2cccc(NS(=O)(=O)c3ccc(Cl)cc3)c2O[C@@H]1CN(C)C(=O)Nc1ccc(C(F)(F)F)cc1	nt	-4.3	nt	nt	nt	-5	-4	-1.4	i
Cc1ccc(S(=O)(=O)N2CCOCC2)cc1NC(=O)CNCc1ccc(Cl)cc1Cl	-5	-8.3	-2.1	nt	0.7	-12	-20	-4.3	i
CCCC(=O)Nc1ccc2c(c1)C(=O)N(C)C[C@@H](OC)[C@H](C)CN(Cc1cccc(F)c1)[C@H](C)CO2	nt	0.0	nt	nt	nt	-2	-3	3.5	i
Cc1ccc(C)c(N2CCN(C(=O)CN3C(=O)c4ccccc4C3=O)CC2)c1	-12	nt	-2.4	-3%	0.73	nt	nt	nt	nt
Cc1nonc1C(=O)N/N=C/c1ccc(O)cc1	99*	0.5	3.7	nt	nt	14	3	0.0	i
COc1ccc(Nc2nc(N3CCOCC3)nc(N3CCOCC3)n2)cc1Cl	-7	-12	4.4	nt	0.67	12	3	-3.1	nt
COc1cc(CNCCO)ccc1OC1CCCC1	-2	nt	-0.3	8%	0.66	nt	nt	nt	nt
OC(CN1CCN(c2ccc(F)cc2)CC1)c1ccc(Cl)cc1 (centres undefined)	nt	-0.3	0.8	-10%	0.6	10	-2	-7.7	i

Later entries:
SMILES	ALR H2O2 inh	MLL AF4-AF9 inh	HNF4A DNA FP	Vif A3G	Ecoli growth	Ecoli rRNA inh	Ecoli rRNA inh OD600	Ecoli rRNA inh RFP	FGF22 binding
CCOC(=O)C1CCN(C(=O)C2CCN(S(=O)(=O)CC)CC2)CC1	0	1.3	-4.7	4%	0.69	16	-3	9.7	i
CN1CCN(c2ccc([N+](=O)[O-])cc2C(=O)c2ccc(Cl)cc2)CC1	nt	nt	2.1	4%	0.73	nt	nt	nt	nt
O=C(Nc1cccc(O)c1)N1CCOCC1	11	nt	0.2	?	0.74	nt	nt	nt	nt
CC(C)(C)c1cc(C(=O)N2CCc3ccccc32)ccn1	-6	nt	-1.7	2%	0.66	nt	nt	nt	nt
O=C(O)CC(=O)Nc1ccc(Oc2ccc(C(F)(F)F)cn2)c(Cl)c1	-3	0.0	-0.6	-3%	0.7	-17	-18	-0.1	i

High-throughput results: PubChem BioAssay, several laboratories

This is a subset, so the mix of outcomes need not match the whole.
